Ecoli rRNA inh – inhibitors of bacterial rRNA selective over humanized ribosomes; GFP signal change (wild-type ribosome), % (test concentration not listed); E. coli WT GFP vs humanized-ribosome RFP mutants, fluorescence, 24 h; hits give low values; DMSO median 0, no signal -100; 350,000 compounds, 1.6% hits; AID 720706;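 active = significant combined selectivity score with lowered wild-type GFP, culture density cut under 30%, mutant RFP and density less affected; inactive = any of these conditions unmet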; also: one replicate is shown; some compounds called inactive have numbers as strong as hits
Ecoli growth – inhibitors of Escherichia coli growth; 330,000 compounds, 0.21% hits; OD600 absorbance (test concentration not listed); OD600, 23 h; hits give low values; AID 1053175;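 active = OD600 absorbance below the run mean of sample wells minus 3.6 SD, in any replicate, cut at about 0.56 in these data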;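 also: stock transfer was 300 nL into about 60 µL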
Beta cell apopt – beta cell apoptosis inhibition; INS-1E cytokine-induced death, ATP luminescence, 48 h; percent of positive-control rescue, neutral wells zero; protection from apoptosis, % (concentration not given with the values); 300,000 compounds, 0.8% hits; AID 435005;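 active = all replicates at 75% or more, or half of them and the mean; inconclusive = half reach 75% but not the mean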;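 also: 0% = cytokine-treated negative control wells and 100% = positive control rescue; higher means more ATP so stronger rescue from cytokine killing; wells of about 40 µL received 100 nL stock; the first replicate is given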
T cruzi repl – blocks replication of Trypanosoma cruzi; T. cruzi beta-gal in NIH3T3, luminescence, 90 h; inhibition, % (concentration not given with the values); 300,000 compounds, 1.4% hits;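 active = mean inhibition across valid replicates above about 55%, limit read from the data; inconclusive = mean below that limit but half or more replicates reach it; inactive = mean below it, under half of replicates reach it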;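 also: signal also drops with host cell toxicity which is not excluded here; 0% = plate median of DMSO wells and 100% = zero luminescence signal; higher percent means less beta-gal luminescence so fewer parasites; stock transfer was 50 nL into about 50 µL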
FGF22 binding – FGF22 (human) thermal shift binding; calls only at 9.99 µM; AID 651658; 340,000 compounds, 1.5% hits; Q9HCT0; recombinant FGF22 thermal shift, SYPRO orange fluorescence; percent of sucrose octasulfate shift, DMSO zero;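 active = melting point raised past a set limit in the mean and every replicate; inconclusive = no clear call; three in four hits are not shown here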
Target sequence (Q9HCT0 whole entry, looked up): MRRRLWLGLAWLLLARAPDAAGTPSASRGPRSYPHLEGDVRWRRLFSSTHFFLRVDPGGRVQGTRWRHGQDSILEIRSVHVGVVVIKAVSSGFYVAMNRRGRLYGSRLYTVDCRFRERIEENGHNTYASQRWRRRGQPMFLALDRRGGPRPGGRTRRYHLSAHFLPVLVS
A1 inh – inhibitors of the anti-apoptotic protein A1, read as caspase activation; MEF A1-2A-BIM cells, Caspase-Glo 3/7 luminescence, 3 h; percent of clofoctol response, vehicle zero; caspase activation, % (test concentration not listed); 330,000 compounds, 0.066% hits; AID 2462;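 active = over half of replicate activation scores above 10%, or exactly half above 10 with the replicate mean above 10; inconclusive = replicate mean below 10 yet half the replicates above 10; inactive = over half of replicates below 10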;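 also: wells of about 30 µL received 50 nL stock; many hits fall short of the cut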
UCH37 inh – inhibitors of human deubiquitinating enzyme UCH37; AID 588478; purified proteasome/UCH37, Ub-AMC cleavage fluorescence; inhibition, % (no concentration beside the values); Q9Y5K5; 330,000 compounds, 0.33% hits;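 active = mean of two replicates above 20%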;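 also: 0% = compound-free wells with enzyme and 100% = wells lacking proteasome; stock transfer was 100 nL into about 20 µL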
Target sequence (Q9Y5K5 whole entry, looked up): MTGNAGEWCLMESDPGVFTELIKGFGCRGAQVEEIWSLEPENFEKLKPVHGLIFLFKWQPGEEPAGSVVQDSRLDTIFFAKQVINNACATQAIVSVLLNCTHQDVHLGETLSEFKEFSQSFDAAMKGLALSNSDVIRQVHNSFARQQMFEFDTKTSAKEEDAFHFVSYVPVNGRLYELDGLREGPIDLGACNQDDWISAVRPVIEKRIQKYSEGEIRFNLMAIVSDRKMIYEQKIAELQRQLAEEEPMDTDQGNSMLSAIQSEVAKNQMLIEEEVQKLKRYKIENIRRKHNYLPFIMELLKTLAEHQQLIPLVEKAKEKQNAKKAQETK
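Assay system: Proteasome-bound UCH37. Buffer or medium: pH 7.4 Tris-HCl (50 mM) with ovalbumin, ATP-MgCl2, DTT. Incubation: 30 min preincubation with enzyme, 25 min cleavage at room temperature. Measured by: fluorescence, ex 355 nm, em 460 nm. Read-out basis: percent inhibition. Control set: wells without proteasome as full block, compound-free enzyme plus substrate as uninhibited.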
MLL AF4-AF9 inh – inhibitors of human MLL-AF4/AF9 interaction; inhibition, % at 10 µM; AID 651704; P42568; 350,000 compounds, 0.47% hits; AlphaScreen, biotin-AF4 peptide binding to FLAG-AF9;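 active = every replicate reaching a set inhibition limit, whatever the replicate mean, cut at about 25% in these data; inconclusive = mean inhibition reaches that limit but some replicates miss it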;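 also: 0% = plate neutral control median and 100% = total signal loss; the record names both 10 and 1 µM as test concentration; the first replicate is given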
Target sequence (P42568 whole entry, looked up): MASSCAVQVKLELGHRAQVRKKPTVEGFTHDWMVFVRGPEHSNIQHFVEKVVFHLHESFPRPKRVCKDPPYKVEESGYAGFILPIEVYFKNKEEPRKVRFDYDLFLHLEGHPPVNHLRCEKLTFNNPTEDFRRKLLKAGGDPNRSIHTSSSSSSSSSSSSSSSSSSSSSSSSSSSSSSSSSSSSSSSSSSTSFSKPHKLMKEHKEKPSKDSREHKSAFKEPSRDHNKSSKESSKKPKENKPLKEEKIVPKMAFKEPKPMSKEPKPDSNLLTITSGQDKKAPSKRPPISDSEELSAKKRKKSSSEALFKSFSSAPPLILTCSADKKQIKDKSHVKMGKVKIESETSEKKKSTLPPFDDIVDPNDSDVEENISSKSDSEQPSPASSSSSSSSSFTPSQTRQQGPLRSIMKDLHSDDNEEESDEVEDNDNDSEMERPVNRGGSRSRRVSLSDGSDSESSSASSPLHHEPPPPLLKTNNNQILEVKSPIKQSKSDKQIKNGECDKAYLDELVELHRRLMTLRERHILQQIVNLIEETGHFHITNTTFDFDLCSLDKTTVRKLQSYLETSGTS
Ecoli rRNA inh OD600 – recorded beside Ecoli rRNA inh, whose call it bears; OD600 change, %; measured here: OD600 growth;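 optical density of the mix in the first replicate; 0 = DMSO median and -100 = no signal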
Ecoli rRNA inh RFP – recorded beside Ecoli rRNA inh, whose call it bears; RFP signal change, %; measured here: RFP humanized mutant strains;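 first replicate; 0 = DMSO median and -100 = no signal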
* marks the source's active call; other numbers are inactive results; i = inactive; u = inconclusive; x = not tested or not shown; & = joins results of further samples. Some of the compounds tested; the hit share may differ from the screen's.

SMILES	Ecoli rRNA inh	Ecoli rRNA inh OD600	Ecoli rRNA inh RFP	Ecoli growth	Beta cell apopt	T cruzi repl	FGF22 binding	A1 inh	UCH37 inh	MLL AF4-AF9 inh
COc1cc2[nH]c(=O)n(CCC(=O)N3CCC(N4CCCCC4)CC3)c(=O)c2cc1OC	x	x	x	0.7	-4	-11	x	-0.3	-4.5	x
CCOC(=O)CCC(NC(=O)c1cncc(O)c1)C(=O)OCC (centres undefined)	x	x	x	0.64	0	2	x	-0.6	-29	x
CCN(CC)C(=O)c1[nH]cnc1C(=O)N[C@H](C)c1ccccc1	10	3	4.8	x	-8	x	i	-0.2	2.7	-14
NC(=O)C1(N2CCCCC2)CCN(C2CC(=O)N(CCc3ccccc3)C2=O)CC1 (centres undefined)	x	x	x	0.7	4	-4	x	0.0	2.7	x
CN1CCN(c2oc(-c3ccc([N+](=O)[O-])cc3)nc2C#N)CC1	5	1	-1.2	0.62	x	15	i	0.2	4.6	-0.2
O=C1NC2(O)C(=O)c3ccccc3C2(O)N1 (centres undefined)	25	31	3.6	0.68	-4	7	i	1.0	-0.3	-0.7
CC(C)NS(=O)(=O)c1ccc(NC(=O)c2cccnc2)cc1	8	3	-0.7	0.76	1	-3	i	-0.4	2.5	0.7
CC(C)C(=O)Nc1ccc2c(c1)nc(CCN1CCN(C)CC1)n2C	5	9	7.1	0.66	-10	-1	i	0.1	1.7	-8.9
Cc1ccc(CCN=c2c([N+](=O)[O-])nn(-c3ccccc3)n2O)cc1	3	7	-0.3	0.71	11	70*	i	-0.9	2.3	5.0
CCOC(=O)c1c(C)c(C(=O)NCc2ccccc2OC)c(C)n1C	-2	-2	1.3	0.7	0	2	x	-0.5	-2.9	x
O=C(Nc1ccccc1)N1CCc2ccccc2C1	x	x	x	0.68	0	-8	x	-0.6	1.6	x
Cc1ccc(NC(=O)CCN2CCN(CCO)CC2)cc1Br	6	6	0.0	0.66	2	-11	i	-0.5	4.1	-0.7
CC(C)CC(=NNC(=O)c1ccncc1)c1cc(Cl)ccc1O	-60	-79	-18	0.67	x	x	i	x	-4.5	-1.6
Cc1cccc(NC(=O)c2cccc(N3C(=O)C4C5CCC(C5)C4C3=O)c2)c1C (centres undefined)	x	x	x	0.72	-1	-18	x	1.0	1.2	x
COc1cccc(CNc2ccc(F)c([N+](=O)[O-])c2)c1O	4	-3	14	0.7	1	-20	i	0.7	1.4	19
COc1ccc(Cn2c(CCC(=O)NCc3ccco3)nc3cccnc32)cc1	x	x	x	0.73	2	-7	x	0.0	4.6	x
COc1ccc(NC(=O)CSc2nc3c(cc2C#N)CN(C)CC3)cc1	x	x	x	0.73	0	15	x	0.7	-11	x
O=C(NNC(=O)c1ccncc1)Nc1cccc(C(F)(F)F)c1	4	5	0.7	0.72	-6	-1	i	-1.6	1.0	1.1
COc1ccc(-c2ccnc3c(C#N)cnn23)cc1	-6	-3	-3.5	0.65	-9	-1	i	1.0	i	-3.4
Cc1ccc(S(=O)(=O)N(C)C)cc1NC(=O)COC(=O)c1ccc2c(c1)OCO2	x	x	x	0.72	5	-7	x	-0.2	1.0	x
CC(Sc1ccsc1[N+](=O)[O-])C(=O)NCCc1ccc(Cl)cc1 (centres undefined)	x	x	x	0.65	x	36	x	1.5	4.7	x
Cn1c(=O)c2c(nc(SCc3ccc(F)cc3)n2C)n(C)c1=O	9	10	0.4	0.62	x	6	i	0.5	-1.8	-5.2
Cc1csc(=O)n1CC(=O)OC(C)C(=O)Nc1ccc(N(C)C)cc1 (centres undefined)	11	7	-1.3	0.68	x	x	i	x	3.7	4.2
CN(Cc1ccccc1)C(=O)CCS(=O)(=O)c1ccc2c(c1)n(C)c(=O)c(=O)n2C	2	-7	-3.3	0.71	x	4	i	1.0	-5.1	6.1
CC(C(=O)NCC1CCCCC1)N(C)CC(=O)Nc1ccc(N2CCOCC2)cc1 (centres undefined)	6	8	2.8	0.68	0	-3	i	1.0	3.2	1.7

Full records, quoted from the list. Order of screens: Ecoli rRNA inh | Ecoli rRNA inh OD600 | Ecoli rRNA inh RFP | Ecoli growth | Beta cell apopt | T cruzi repl | FGF22 binding | A1 inh | UCH37 inh | MLL AF4-AF9 inh
Listed for Cc1ccc(S(=O)(=O)N(C)C)cc1NC(=O)COC(=O)c1ccc2c(c1)OCO2 = x | x | x | 0.72 | 5 | -7 | x | -0.2 | 1.0 | x
Listed for Cn1c(=O)c2c(nc(SCc3ccc(F)cc3)n2C)n(C)c1=O = 9 | 10 | 0.4 | 0.62 | x | 6 | i | 0.5 | -1.8 | -5.2
Listed for O=C(Nc1ccccc1)N1CCc2ccccc2C1 = x | x | x | 0.68 | 0 | -8 | x | -0.6 | 1.6 | x
Listed for CC(C(=O)NCC1CCCCC1)N(C)CC(=O)Nc1ccc(N2CCOCC2)cc1 (centres undefined) = 6 | 8 | 2.8 | 0.68 | 0 | -3 | i | 1.0 | 3.2 | 1.7

Continuation.
SMILES	Ecoli rRNA inh	Ecoli rRNA inh OD600	Ecoli rRNA inh RFP	Ecoli growth	Beta cell apopt	T cruzi repl	FGF22 binding	A1 inh	UCH37 inh	MLL AF4-AF9 inh
C[C@H](CO)N1C[C@H](C)[C@@H](CN(C)C(=O)Nc2ccc3c(c2)OCO3)Oc2c(cccc2N(C)C)C1=O	1&6	4&8	0.3&1.5	0.68	-5	x	i	0.4	0.3	-0.5&-0.9
O=S1(=O)C=C(Sc2nnc(-c3ccccc3)o2)c2ccccc21	x	x	x	0.61	105*	63*	x	u	2.2	x
CCOC(=O)c1cnc2nc(Cc3ccccc3)[nH]n2c1=O	x	x	x	0.69	x	-5	x	0.0	-1.0	x
Cc1ccccc1-c1nnc(-c2cccs2)o1	-11	1	-3.2	0.67	-3	2	i	-11	-0.7	0.2
Clc1cccc(Cl)c1COn1nnc2ccccc21	x	x	x	0.66	1	0	x	-0.2	4.8	x
CC(C)(C)n1ncc2c(=O)n(Cc3cccc(Cl)c3)cnc21	-22	-26	1.2	0.7	3	7	i	0.0	4.0	-1.8
C/C(=C/c1ccccc1)C(=O)N1CCN(c2ccc(F)cc2)CC1	-30	-29	-6.0	0.67	-8	-9	i	0.4	0.6	3.6
CN(C)CCN(C(=O)c1ccc(Br)s1)c1nc2cc3c(cc2s1)OCCO3	-1	-2	-0.2	0.66	-1	35	i	-0.6	-3.3	12
CC(=O)Nc1ccc(S(=O)(=O)N[C@@H](C)C(=O)OCC(=O)c2ccc(C)cc2)cc1	13	10	2.6	0.67	3	x	i	-0.6	-0.2	1.9
O=C1c2ccccc2C(=O)N1CC(O)COc1ccccc1Cl (centres undefined)	-4	-5	-0.1	0.67	x	-1	i	-0.1	1.6	1.5
CCN1CCCc2cc(CN(CCN3CCOCC3)C(=S)Nc3ccc(OC)cc3)ccc21	6	-11	0.8	0.71	0	42	i	0.1	5.2	6.9
CC(=O)c1ccc(NC(=S)NCc2ccco2)cc1	8	7	5.0	0.62	0	-8	i	0.4	1.0	-2.1
O=[N+]([O-])c1ccc(Nc2ccccc2F)nc1	-25	-30	35	0.63	-1	13	i	-0.7	3.9	6.0
O=Cc1ccc(OC(=O)C2CC(=O)N(c3ccc(F)cc3)C2)cc1 (centres undefined)	x	x	x	0.7	4	-16	x	0.2	6.3	x
CCc1ccccc1NC(=O)C1CCCC1	5	12	0.3	0.64	-8	-2	i	-0.1	-1.8	-0.1
COc1ccc(C(=O)NNC(=O)C(=O)Nc2ccc(C)c(Cl)c2)cc1	5	13	-2.4	0.72	5	12	i	-0.8	4.2	-4.3
CCOc1ccc(NC(=O)COc2coc(CN3CCc4ccccc4C3)cc2=O)cc1	9	9	1.5	0.69	x	-3	i	-0.9	2.8	0.6
O=C(C[n+]1cccc(CNC(=O)c2ccc(OC(F)F)cc2)c1)c1ccccc1	3	3	1.3	0.69	2	3	i	0.6	6.3	0.9
O=C(O)c1cccc(C(=O)O)c1Br	13	23	14	0.81	x	-18	i	2.3	1.9	-15
Cc1ccc(OCC(=O)Oc2ccccc2[N+](=O)[O-])cc1	x	x	x	0.66	-4	-16	i	0.4	4.1	-1.7
O=C(COC(=O)c1cccc(S(=O)(=O)N2CCOCC2)c1)Nc1ncc(Cl)cc1Cl	8	11	2.9	0.68	1	x	i	-0.4	4.4	0.3
O=C(Cc1nc2ccccc2[nH]1)c1ccc([N+](=O)[O-])cc1	-14	-7	3.6	0.68	0	-1	i	-1.1	-27	-0.1
[O-]c1n[n+](-c2ccc(Cl)cc2)cc2ccccc12	-13	-9	8.6	0.65	12	-13	i	-0.4	9.9	0.3
CCOc1ccc(N(CC(=O)Nc2cccc(C)c2)S(C)(=O)=O)cc1	-4	-5	-3.6	0.61	-3	0	i	-0.2	2.5	-3.8
CC1CC1C(=O)OCC(=O)Nc1ncc(Cl)cc1Cl (centres undefined)	8	4	-0.2	0.66	8	-9	i	0.0	3.9	6.5

Additional entries
SMILES	Ecoli rRNA inh	Ecoli rRNA inh OD600	Ecoli rRNA inh RFP	Ecoli growth	Beta cell apopt	T cruzi repl	FGF22 binding	A1 inh	UCH37 inh	MLL AF4-AF9 inh
CC(C)Cc1nc(C#N)c(N2CCC(C(N)=O)CC2)o1	x	x	x	0.7	3	0	i	0.1	0.2	0.9
Cc1[nH][nH]c(=O)c1C(c1ccc(-c2cccc(C(=O)O)c2)o1)c1c(C)[nH][nH]c1=O	16	19	0.9	0.72	-6	-16	i	-0.1	44*	-4.5
CC(NC(=O)c1cc(S(=O)(=O)N2CCOCC2)cn1C)c1ccccc1 (centres undefined)	12	7	-1.8	0.8	-9	-2	i	0.9	1.6	6.3
Cc1cc(C)n(S(=O)(=O)c2ccc3ccccc3c2)n1	x	x	x	0.69	-1	9	x	-0.1	-0.6	x
N#C[C@@H]1N(Cc2ccccc2)C(=O)[C@H]2CC3C=CC21O3 (some centres undefined)	20	9	-0.5	x	-4	-6	i	1.7	2.6	0.9
Cc1cc(NCCO)nc(-n2nc(C)cc2C)n1	x	x	x	0.78	0	-22	x	-0.4	5.3	x
COc1ccc(NC2SC(=O)N(CC(=O)O)C2=O)cc1 (centres undefined)	x	x	x	0.69	-2	-15	x	1.1	1.2	x
CCOC(=O)n1c(=O)n(Cc2cccc(C)c2)c2ccccc21	-33	-48	-6.1	0.67	x	-8	i	1.5	2.7	-1.1
COc1ccc(Cn2c(-c3ccco3)nc3oc4ccccc4c(=O)c3c2=O)cc1	x	x	x	0.72	-2	1	x	-0.4	1.6	x
CCOC(=O)c1ccccc1NC(=O)C1CSC2(C)CCC(=O)N12 (centres undefined)	0	-3	3.5	0.69	x	3	i	0.3	-1.3	0.5
COc1cc(CCCN2CCNC[C@@H]2c2ccccc2)cc(OC)c1OC	8	10	11	x	1	x	i	0.6	5.3	-19
CCC(C)c1ccc(NC(=O)CN(C)CC(=O)Nc2cccc(OC)c2)cc1 (centres undefined)	8	10	-3.4	0.68	-3	-3	i	0.2	0.5	-0.9

High-throughput results (PubChem)
